Screening results (PubChem BioAssay)
Marburg entry inh – inhibitors of Marburg virus binding or cell entry | Marburg virus pseudotyped entry inhibition, cell reporter; control for the full effect not named in the record; about a third of the inactives were read at about 46 µM | AID 540276 | Potency, µM (highest dose often 37.8 µM), for inactives: at the top dose activity change, negative = inhibition, actives largely listed as inhibitors | 300,000 compounds, 1.8% hits; active = well fitted inhibition curve with a large enough effect; inconclusive = small, poorly fitted or top-dose-only effect, or effect the other way; inactive = flat fitted curve, though single readings scatter; tested in HEK293 cells; about a fifth of its hits are not listed in these tables; note: % is set by controls: 0 for no effect and ±100 for the full control effect; luciferase read-out
LASV entry inh – Lassa virus entry inhibition. AID 540256. Potency, µM (highest dose often 37.9 µM), for inactives: at the highest dose activity change, negative = inhibition, actives largely listed as inhibitors. Lassa virus pseudotype entry inhibition, cell reporter; control for the full effect not named in the record. 300,000 compounds, 1.2% hits; active means well fitted inhibition curve with a large enough effect; inconclusive means small, poorly fitted or top-dose-only effect, or effect the other way; inactive means flat fitted curve, though single readings scatter; tested in HEK293 cells; note: % is set by controls: 0 for no effect and ±100 for the full control effect; nearly all actives have a fitted effect of over 50% in size; luciferase read-out
Cruzain inh noDet – cruzain (T. cruzi) inhibition without detergent. P25779. purified cruzain, Z-FR-AMC fluorescence, no detergent. Potency, µM, for inactives: max response, negative = inhibition, usual class: inhibitors. 200,000 compounds, 2.3% hits; active = well fitted curve in the direction sought with a large enough effect; inconclusive = small, poorly fitted or top-dose-only effect, or another doubt; inactive = no such curve, though single readings can be large; an effect the other way counts as inactive or inconclusive;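 note: plate controls were enzyme without inhibitor for no effect and buffer without enzyme for full effect; nearly all actives have a fitted effect of over 40% in size; top concentration of the series not given in the record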
Target sequence (P25779 123-467 limits assumed): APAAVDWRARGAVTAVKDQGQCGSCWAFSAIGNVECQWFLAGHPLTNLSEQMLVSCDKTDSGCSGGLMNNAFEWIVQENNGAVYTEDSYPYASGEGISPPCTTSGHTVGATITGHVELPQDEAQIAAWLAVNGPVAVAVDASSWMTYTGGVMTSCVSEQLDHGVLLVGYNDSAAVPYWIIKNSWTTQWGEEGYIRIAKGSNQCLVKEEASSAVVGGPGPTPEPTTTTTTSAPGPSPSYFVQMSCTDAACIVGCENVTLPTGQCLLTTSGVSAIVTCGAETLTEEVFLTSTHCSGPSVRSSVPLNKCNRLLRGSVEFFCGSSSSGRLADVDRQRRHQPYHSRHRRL
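Detergent-free condition (0.00005% Triton X-100) in acetate buffer pH 5.5 with DTT. 1.5 nM enzyme and compound were pre-mixed 15 min, then 2 uM Z-FR-AMC substrate added; reaction progress from fluorescence change between first and third reads (60 s).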
NS1 inh – blocks influenza NS1 protein function. Potency, µM (highest dose often 46.1 µM), for inactives: at the highest dose activity, positive = more growth. 270,000 compounds, 0.4% hits. S. cerevisiae slowed by influenza A NS1, growth recovery by OD600. AID 2326; note: actives are rising curves; nearly all actives have a fitted effect of over 50% in size
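Compounds were scored for reversing the slow growth caused by influenza A NS1 in S. cerevisiae, measured by optical density at 600 nm. Assay medium contained 2% galactose at pH 6.0; NS1-free yeast of the same strain were the positive control.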
SARS PLpro yeast – SARS-CoV PLP inhibition in yeast; S. cerevisiae expressing SARS-CoV PLpro, growth rescue; control for the full effect not named in the record; 330,000 compounds, 0.19% hits; AID 485353; Potency, µM (doses to about 32.9 µM), for the others: at the top dose activity, positive = growth rescue; note: 0% is about no effect; nearly all actives have a fitted effect of over 55% in size; growth read by luminescence after 48 h
RE007 growth inh – less growth of the S. pombe RE007 Vpr strain. S. pombe RE007 Vpr strain, BacTiter-Glo ATP luminescence, 24 h; control for the full effect not named in the record. Potency, µM (top dose mostly 92.2 µM), for the others: top-dose activity change, negative = less growth. 360,000 compounds, 0.21% hits. AID 651644; active = well fitted falling curve with a large enough effect; inconclusive = small, poorly fitted or top-dose-only effect; inactive = no such curve, though single readings can be large or run the other way;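 note: % is set by controls: 0 for no effect and ±100 for the full control effect; nearly all actives have a fitted effect of over 50% in size; the assay follows cell death caused by Vpr and the record does not say whether a fall means rescue or toxicity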
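Fission yeast RE007 carrying one integrated HIV-1 vpr copy, seeded at OD 0.01 in PMG+AL medium with 23 nL pinned compound. Grown 24 h at 30 degrees; viability read by BacTiter-Glo luminescence after 5 min.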
2A StopGo – FMDV 2A StopGo reporter, luciferase signal; human cells with a luciferase reporter of 2A StopGo recoding; control for the full effect not named in the record; Potency, µM (titrated, usually from 57.9 µM), inactives show top-dose signal change, negative = less light; 410,000 compounds, 1.2% hits; AID 1159524; active = well fitted falling curve with a large enough effect; inconclusive = small, poorly fitted or top-dose-only effect; inactive = no such curve, though single readings can be large or run the other way; tested in HEK293T cells; note: % is set by controls: 0 for no effect and ±100 for the full control effect; nearly all actives have a fitted effect of over 45% in size; luciferase light after 4 h
Cruzain Triton – inhibitors of Trypanosoma cruzi cruzain with detergent | purified cruzain, Z-FR-AMC fluorescence, 0.01% Triton | Potency, µM, inactives show max response, negative = inhibition, most hits filed as inhibitors | 200,000 compounds, 0.43% hits; active = well fitted curve in the direction sought with a large enough effect; inconclusive = small, poorly fitted or top-dose-only effect, or another doubt; inactive = no such curve, though single readings can be large; an effect the other way counts as inactive or inconclusive;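 note: plate controls were neutral wells for no effect and buffer without enzyme for full effect; nearly all actives have a fitted effect of over 40% in size; top concentration of the series not given in the record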
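Enzyme 1.5 nM, Z-FR-AMC 2 uM, NaOAc 100 mM pH 5.5, DTT 5 mM, Triton X-100 0.01%; 15 min RT compound preincubation; kinetic ex360/em450, 60 s delta.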
Numbers without * were called inactive; ? = inconclusive; nt = not tested or not shown; & = joins results of further samples; [ ] = dose if it differs, or a comment. Unless noted, calls come from the whole dose curve; as a rule, active means well fitted rising curve with a large enough effect; inconclusive means small, poorly fitted or top-dose-only effect; inactive means no such curve, though single readings can be large or run the other way. Potency is the fitted concentration of half-maximal effect.

Fields – Marburg entry inh, LASV entry inh, Cruzain inh noDet, NS1 inh, SARS PLpro yeast, RE007 growth inh, 2A StopGo, Cruzain Triton
- O=C1CSC(=S)N1
 : nt, nt, nt, -1%, -1%, -4%[18.4 µM], -22%, nt
- CCOC(=O)CCC(=O)Nc1ccc([N+](=O)[O-])cc1C
 : -6%[46.1 µM], 1%, nt, -2%, 0%, -3%, -13%, nt
- Cc1cc2[nH]c(=O)c(=O)[nH]c2cc1S(=O)(=O)N1CCN(c2ccccc2)CC1
 : nt, 0%[46.1 µM], nt, 1%, 0%, -14%, 0%&-10%, nt
- c1ccc2c(c1)C(=NCC1CCCO1)NC2=NCC1CCCO1 (configuration not stated)
 : -1%, -10%, -9%, -12%, 9%, -11%, nt, 0.2%
- CC(=O)c1ccc(OCC(=O)Nc2c(C)nn(-c3ccccc3)c2C)cc1
 : 1%, 6%, nt, nt, nt, -22%, -22%, nt
- Cc1ccc(CNS(=O)(=O)NCc2ccccc2)cc1
 : ?, 5%, 2%, -4%, -6%, -5%, 30%[activator], 1.3%
- CC(C)(C)C1CCC(C(=O)Nc2ccccc2N2CCOCC2)CC1 (configuration not stated)
 : ?, -11%, nt, nt, 5%, 3%, -17%, nt
- COc1ccc(C(=O)OCC(=O)c2ccc[nH]2)cc1
 : ?, 4%, nt, nt, 4%, 32%, 33%[activator], nt
- CN(C)c1nc2c(Br)c(Br)c(Br)c(Br)c2[nH]1
 : ?, ?, -5%, -17%, nt, nt, nt, -16%
- COc1ccc(CCCC(=O)NCCc2ccccc2)cc1
 : nt, nt, nt, -21%, 0%, 2%, 11%, nt
- Cc1oc2ccccc2c1CC(=O)NCCCN(C)C
 : nt, nt, nt, -5%, -1%, 0%, -20%, nt
- CC(=O)OC1CCC2(/C=N/O)C(=CCC3C4CCC(=O)C4(C)CCC32)C1 (configuration not stated)
 : nt, nt, nt, -33%, -1%, -11%, 5%, nt
- O=C(OCCOc1ccccc1Cl)c1ccc(-n2cnnn2)cc1
 : -11%, 7%, -2%, -57%, -7%, 1%, 32%[activator], -9.4%
- COC(=O)C1=CN(CCCN2CCCC2=O)C=C(C(=O)OC)C1c1cccs1
 : 25%, -1%, 19%, 1%, 2%, 7%, 6%, -9.5%
- O=C(NCCC1=CCCCC1)C(=O)NCCc1ccc(Cl)cc1
 : -9%, -1%, nt, 5%, 1%, -4%, -2%, nt
- O=C(c1ccc(C#Cc2ccccc2)o1)N1CCN(c2ccccn2)CC1
 : -10%, -14%, 5%, -96%, -16%, -2%, nt, -11%
- COc1ccc(CCNCc2ccc(C)s2)cc1OC
 : -14%[46.1 µM], -8%, nt, nt, 0%, 0%, -19%, nt
- CCOC(=O)c1cnc2c(ccc3ccccc32)c1Nc1ccc(OC)cc1OC
 : ?, ?, 2%, nt, nt, nt, -2%, -3.2%
- N#Cc1cccc(NC(=O)CCNC(=O)c2ccccc2Cl)c1
 : nt, nt, nt, 3%, 0%, 13%, -22%, nt
- COCCN(C(=O)COC(=O)/C=C/c1ccc(OC)c(OC)c1)c1c(N)n(Cc2ccccc2)c(=O)[nH]c1=O
 : 18%, 23%, nt, nt, -2%, -17%, 4%, nt
- COc1ccc(Cl)cc1Nc1nc(C)cc(=O)[nH]1
 : -7%, 9%, -5%, -3%, -1%, 5%, -14%, 0.0%
- Cc1ccc2nc3n(c(=O)c2c1)CCC3
 : -4%, -10%, -6%, 8%, 2%, -9%, nt, 2.4%
- COc1ccc(C(=O)CSc2nnc(CNc3nc(-c4ccccc4)cs3)n2C)cc1
 : ?, -29%, -16%, -10%, -5%, 9%, 40µM*, -8.4%
- Cc1ccccc1C(=O)N1N=C(c2ccc(NS(C)(=O)=O)cc2)CC1c1cccs1 (configuration not stated)
 : ?, ?, nt, 11%, 7%, -3%, 11%, nt
- Cc1ccc(C2CCN(C(=S)NC3CCCCC3)C2)cc1 (configuration not stated)
 : ?, ?, nt, nt, -1%, ?, -2%, nt
- CCOc1ccc(C(C(=O)NCC2CCCO2)N(C(=O)c2snc(C(N)=O)c2N)c2ccccc2F)cc1 (configuration not stated)
 : ?, 7.1µM*, nt, 5%, -1%, 11%, 26%, nt
- Cn1c(CCc2nc3ccccc3[nH]2)n[nH]c1=S
 : 9%[46.1 µM], nt, nt, nt, -10%, -3%, -3%, nt
- Cc1ccc(-n2cnc3cc(NCc4cccs4)ccc32)cc1
 : ?, ?, 7%, -88%, -32%, 22µM*, 6%, -3.4%
- Cc1cccc(N(Cc2cc3ccccc3[nH]c2=O)S(=O)(=O)c2ccccc2)c1
 : 20%, 0%, -2%, 4%, -2%, -6%, ?, -2.7%
- O=C(NCC(c1cccs1)N1CCOCC1)c1ccccc1NS(=O)(=O)c1cccc([N+](=O)[O-])c1 (configuration not stated)
 : ?, ?, -12%, -4%, -1%, 8%, ?, -3.2%

Compound profiles, from the list above.
Shown for `CC(C)(C)C1CCC(C(=O)Nc2ccccc2N2CCOCC2)CC1` (configuration not stated) : Marburg entry inh = ?; LASV entry inh = -11%; Cruzain inh noDet = nt; NS1 inh = nt; SARS PLpro yeast = 5%; RE007 growth inh = 3%; 2A StopGo = -17%; Cruzain Triton = nt
Shown for `Cc1cccc(N(Cc2cc3ccccc3[nH]c2=O)S(=O)(=O)c2ccccc2)c1` : Marburg entry inh = 20%; LASV entry inh = 0%; Cruzain inh noDet = -2%; NS1 inh = 4%; SARS PLpro yeast = -2%; RE007 growth inh = -6%; 2A StopGo = ?; Cruzain Triton = -2.7%

(cont.)
Fields – Marburg entry inh, LASV entry inh, Cruzain inh noDet, NS1 inh, SARS PLpro yeast, RE007 growth inh, 2A StopGo, Cruzain Triton
- COCC1CCN(C(=O)c2cc(COc3ccc4c(c3)CCCC4)on2)C1 (configuration not stated)
 : 21%, ?, nt, -32%, -2%, -19%, 0%, nt
- Cc1ccc(/C=C/C(=O)NCC2COc3ccccc3O2)o1 (configuration not stated)
 : 7%[46.1 µM], -7%, nt, nt, -2%, -3%, 22%, nt
- Cc1ccc(NC(=O)CSc2nc(O)c(Cc3ccccc3)c(=O)n2-c2ccccc2)cc1
 : 0%, 13%, -3%, ?, 3%, 14%, 2%, -19%
- Cc1cccc(-n2ncc3c(NCCCO)ncnc32)c1
 : nt, nt, 2%, -3%, 14%, -8%, 25%, -0.5%
- COC(=O)Nc1ccc(S(=O)(=O)N2CCN(c3ccc(F)cc3)CC2)cc1
 : ?, -15%, -4%, 5%, 4%, 3%, ?, -5.8%
- CCc1ccc(-n2nc3ccc(NC(=O)c4ccc(C#N)cc4F)cc3n2)cc1
 : 13%[46.1 µM], -4%[46.1 µM], 0%, nt, nt, nt, -3%, 0.8%
- Cc1ccnc(NC(=O)c2cccc(S(=O)(=O)N3CCCc4ccccc43)c2)c1
 : ?, ?, nt, nt, -4%, 4%, -4%, nt
- Brc1ccc(C2Nc3cccc4cccc(c34)N2)s1
 : 25%, 16%, ?, -2%, 2%, -10%, 0%, -5.4%
- Cc1ncoc1C(=O)N1CCCC(C(=O)c2ccc(Oc3ccccc3)cc2)C1 (configuration not stated)
 : -2%[46.1 µM], 14%, nt, -67%, -8%, 26%, -13%, nt
- COc1ccccc1C1CC(c2ccc(Br)cc2)=NN1C(=O)c1cccnc1 (configuration not stated)
 : -27%, ?, 12%, -5%, -54%, 2%, 32µM*, -2.4%
- CN1CCN(c2ncc3c(n2)CCN(Cc2cc(Br)cs2)C3)CC1
 : nt, -1%[46.1 µM], -11%, nt, nt, nt, -20%, -7.8%
- O=C(CN1CCOCC1)Nc1nc2ccc([N+](=O)[O-])cc2s1
 : 14%, ?, nt, 4%, -1%, 4%, 21%, nt
- CCOC(=O)c1ccc(NC(=O)CN2c3ccccc3S(=O)(=O)c3ccccc32)cc1
 : nt, ?, 28%, nt, nt, nt, -10%, -0.9%
- Cc1ccc(C(=O)N=c2sccn2C)cc1C
 : ?, ?, nt, -7%, -2%, ?, -1%, nt
- COc1cc(C(=O)NC2CC(=O)N(c3cccc(F)c3)C2)cc(OC)c1OC (configuration not stated)
 : nt, ?, -4%, nt, nt, nt, -16%, -0.6%
- CCOc1ccc(Br)cc1S(=O)(=O)Nc1ccc(S(=O)(=O)Nc2cc(C)on2)cc1
 : ?, 9%[46.1 µM], nt, nt, 2%, 2%, 36%[activator], nt
- Cc1[nH][nH]c(=O)c1C(c1ccc(O)c(Br)c1)c1c(C)[nH][nH]c1=O
 : 1%, -14%, nt, 1%, 1%, 3%, ?, nt
- O=C(c1nc2nc(-c3ccccc3)cc(C(F)(F)F)n2n1)N1CCCCC1
 : 21%, 1%, 4%, 3%, 2%, 2%, -21%, -3.7%
- Cc1ccc(C)c(SCC(=O)OCC(=O)Nc2ncc(C(F)(F)F)cc2Cl)c1
 : 0%[46.1 µM], -1%, 15%, -32%, 21%, 0%, 10%, ?
- O=C(O)c1cc(S(=O)(=O)Nc2ccc3c(c2)OCCO3)c(Cl)cc1Cl
 : nt, nt, 0%, -1%, 1%, -6%, 36%[activator], -7.0%
- CC1C(=O)OC(c2ccc(Cl)cc2)C(C)(C)C1=O (configuration not stated)
 : ?, 11%, nt, 0%, 0%, 1%, -5%, nt
- COCc1cc(=O)[nH]c(SCC(=O)N2CCOCC2)n1
 : 5%[46.1 µM], 5%[46.1 µM], nt, -2%, -2%, -3%, 8%, nt
- O=C(C1CCOCC1)N1CCC(CO)(CCc2ccccc2)CC1
 : 0%[46.1 µM], -18%, nt, -2%, 4%, 5%, -5%, nt
- COc1ccc(/C=N/NC(=O)c2ccccc2O)cc1Cn1nnc2ccccc21
 : nt, nt, nt, -14%, 0%, 7%, 10%, nt
- O=C(CN1CCN(S(=O)(=O)c2ccc3ccccc3c2)CC1)Nc1ccc2c(c1)CCC2
 : ?, -8%, ?, 13%, -3%, -6%, -1%, 0.0%
